# CSC inhib: cancer stem cell inhibition. cancer stem cell-like cells viability, luminescence. inhibition, % at 7.5 µM. 300,000 tested, 1.1% active. AID 2717;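 active means mean at 75% or more and at least half the replicates too; tested in HMLE shEcad cells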;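 further: 0% = median of negative and 100% = median of positive control wells; the first replicate is given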
# eIF4H FP inh: inhibitors of RNA binding by human eIF4H. eIF4H fluorescence polarization binding assay. inhibition, % at 35 µM. 290,000 tested, 0.94% active;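 active means 50% or more with normal probe brightness, or confirmed in later tests; about a fifth of its hits are not listed in these tables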;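 further: calls also rest on retests at 20 µM and on dose response follow-up; 0% = protein and probe with vehicle and 100% = probe without protein; strong numbers were not always called active; many hits fall short of the cut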
# Rce1 inh: inhibitors of yeast Ras-converting enzyme; yeast membranes, quenched prenylated peptide cleavage fluorescence; calls only; 290,000 tested, 0.27% active; AID 2563;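 active means fall in fluorescence gain of 50% or more versus controls, with final raw signal at or below 3038400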;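 further: plate controls were neutral control wells for no effect and wells lacking membranes for full effect; tested at 10 µM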
# Target sequence (Q03530 whole entry, looked up): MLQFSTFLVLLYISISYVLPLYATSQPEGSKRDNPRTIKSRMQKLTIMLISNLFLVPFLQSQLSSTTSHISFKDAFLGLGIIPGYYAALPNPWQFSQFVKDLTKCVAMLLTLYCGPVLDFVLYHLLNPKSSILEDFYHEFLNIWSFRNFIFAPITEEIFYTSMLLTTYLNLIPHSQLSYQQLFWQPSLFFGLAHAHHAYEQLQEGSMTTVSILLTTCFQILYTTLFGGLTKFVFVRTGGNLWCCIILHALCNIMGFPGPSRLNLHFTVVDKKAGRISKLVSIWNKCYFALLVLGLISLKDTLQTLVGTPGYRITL
# PABP FP inh: PABP-poly(A) binding inhibition; inhibition, % at 35 µM; AID 2014; PABP-poly(A) RNA binding, fluorescence polarization; 290,000 tested, 1% active;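 active means 50% or more with normal probe brightness, or confirmed in later tests; about a fifth of its hits are not listed in these tables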;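 further: calls also rest on retests at 20 µM and on dose response follow-up; controls were probe without protein and protein plus probe with vehicle; some compounds called inactive have numbers as strong as hits; many hits fall short of the cut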
# Yeast UUG start: modulators of start codon recognition fidelity in yeast. S. cerevisiae UUG-firefly luciferase reporter, luminescence/redox ratio. activity score, % at 18.7 µM. 350,000 tested, 0.13% active. AID 602363;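 active means replicate mean at a twofold rise or more, about +100% in these data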;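 further: firefly luciferase made from a UUG start codon reports start codon fidelity; reporter light over untreated wells divided by growth signal over untreated wells; some hits fall short of that in this replicate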
# eIF4H FP inh retest: also measured in eIF4H FP inh; calls as there; inhibition, %; compound at 20 µM; confirmation average;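 mean of two retest wells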
# PABP FP inh retest: second read-out of PABP FP inh, no call of its own (marks repeat the call); inhibition, %; compound at 20 µM; confirmation repeats;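 mean of two retest wells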
# * = called active by the depositor; i = inactive; nt = no result given. Not all compounds are listed; count on the stated rates, not on these rows.
SMILES,CSC inhib,eIF4H FP inh,Rce1 inh,PABP FP inh,Yeast UUG start,others
Cc1cccc2cc(CN(Cc3ccco3)C(=O)N3CCCC3)c(=O)[nH]c12,nt,-4,nt,46,nt,
COc1ccc(N(C)C(=S)Oc2ccc(C(=O)Nc3ccccc3)cc2)cc1,nt,-8,nt,2,nt,
O=C(NCc1ccco1)c1cccn2c(=O)c3cc4ccccc4cc3nc12,nt,25,nt,64,nt,eIF4H FP inh retest=-2;PABP FP inh retest=3
Clc1ccc2nc(NC3=NCN(CCN4CCOCC4)CN3)nc(-c3ccccc3)c2c1,nt,-2,nt,1,nt,
COc1ccc2c(c1)C(=O)[C@@H](OC(=O)NCc1ccc3c(c1)OCO3)[C@H](c1ccc(OC)c(Br)c1)O2,nt,-4,nt,0,nt,
Cn1c(=O)c2c(SCC(=O)NCC3CCCO3)nc(-c3cccs3)nc2n(C)c1=O (stereo unspecified),nt,-9,nt,-1,nt,
CC1(C)SC2[C@H](NC(=O)C(NC(=O)N3CCNC3=O)c3ccccc3)C(=O)N2C1C(=O)O (stereo partly specified),nt,4,nt,-2,nt,
C/C(CCN1CCCCc2nc(C)c(C)cc21)=N\OC[C@@H](O)[C@H]1O[C@@H]2OC(C)(C)O[C@@H]2[C@H]1O,nt,5,nt,-1,nt,
CCCOc1ccc(/C(O)=C2/C(=O)C(=O)N(CCN(CC)CC)C2c2ccncc2)cc1 (stereo unspecified),nt,-2,nt,-5,nt,
Cc1ccc(S(=O)(=O)Nc2ccc(-c3nc4cc(NS(=O)(=O)c5ccc(C)cc5)ccc4o3)cc2)cc1,nt,1,nt,-10,nt,

# Overlap with the part before: 4 entries, then new ones.
SMILES,CSC inhib,eIF4H FP inh,Rce1 inh,PABP FP inh,Yeast UUG start,others
CC1(C)SC2[C@H](NC(=O)C(NC(=O)N3CCNC3=O)c3ccccc3)C(=O)N2C1C(=O)O (stereo partly specified),nt,4,nt,-2,nt,
C/C(CCN1CCCCc2nc(C)c(C)cc21)=N\OC[C@@H](O)[C@H]1O[C@@H]2OC(C)(C)O[C@@H]2[C@H]1O,nt,5,nt,-1,nt,
CCCOc1ccc(/C(O)=C2/C(=O)C(=O)N(CCN(CC)CC)C2c2ccncc2)cc1 (stereo unspecified),nt,-2,nt,-5,nt,
Cc1ccc(S(=O)(=O)Nc2ccc(-c3nc4cc(NS(=O)(=O)c5ccc(C)cc5)ccc4o3)cc2)cc1,nt,1,nt,-10,nt,
COc1ccc(C(CC(=O)N2CCN(c3ccccc3)CC2)c2c(OC)cc(OC)c3c(-c4ccccc4)cc(=O)oc23)cc1 (stereo unspecified),nt,33,nt,17,nt,
Fc1ccc(/C=C2\CCCC3=C2NC(=S)NC3c2ccc(F)cc2)cc1 (stereo unspecified),nt,-4,nt,-6,nt,
O=C1NC(=S)N/C1=C/c1ccc(-c2c(Br)cc([N+](=O)[O-])cc2Br)o1,nt,76,nt,-10,nt,eIF4H FP inh retest=4;PABP FP inh retest=0
CCN1CCN(c2ncnc3c2oc2nc(C(C)C)c4c(c23)CCC4)CC1,nt,-3,nt,9,nt,
COc1ccc(-c2nsc3c(SCC(=O)Nc4cc(C)ccc4C)ncnc23)cc1,nt,-3,nt,5,nt,
Cc1ccccc1NC(=O)c1c(O)c2cccc3c2n(c1=O)CCC3,nt,-4,nt,0,nt,
NCc1ccc(-c2nc3ccccc3o2)cc1,nt,0,nt,0,nt,
COc1ccc(Nc2ccc3nnc(-c4ccc(Br)cc4)n3n2)cc1,nt,5,nt,2,nt,
CCOc1cc(-c2ccc3c(c2)OCO3)cc(=O)c2c(C)oc(C)c12,nt,1,nt,7,nt,
c1csc(-c2nn3c(-c4ccncc4)nnc3s2)c1,nt,-2,nt,-8,nt,
Cc1sc2nc(-c3cccs3)nc(N3CCCN(C)CC3)c2c1C,nt,-5,nt,-7,nt,
CC(=O)c1sc(-c2c(C)nc3sccn23)nc1C1CCCC1,nt,-5,nt,2,nt,
CCCNc1ncnc2c1cnn2-c1ccc(OC)cc1,nt,-6,nt,6,nt,
O=C1Cc2cc(CCN3CCN(c4nsc5ccccc45)CC3)c(Cl)cc2N1,nt,25,nt,15,nt,
Cn1c(=O)c(C(=O)Nc2cnccn2)c(O)c2ccccc21,nt,2,nt,4,nt,
CC1(OC(=O)c2ccco2)C(=O)C=C2C=C(c3ccsc3)OC=C2C1=O (stereo unspecified),0,nt,i,nt,nt,
CC(C)(C)OC(=O)NCCCC1=CC2=CC(=O)C(C)(O)C(=O)C2=CO1 (stereo unspecified),-10,nt,i,nt,nt,
Cc1ccc(Nc2[nH]c(=O)c3ccccc3c2C(=O)c2ccccc2)cc1,-5,nt,i,nt,nt,
COC(=O)C1=C[C@@H](C(=O)OC)[C@@H]2C3=C(C(=O)[C@@]2(C)NC(=O)c2ccccc2)[C@H](c2ccccc2)n2c(=O)n(-c4ccccc4)c(=O)n2[C@@H]3C1,-5,nt,i,nt,nt,
O=C1c2cccc3c2[C@H](CCC3)CN1[C@@H]1CN2CCC1CC2,-7,nt,i,nt,nt,

# Next part, starting with the last four of the part before.
SMILES,CSC inhib,eIF4H FP inh,Rce1 inh,PABP FP inh,Yeast UUG start,others
CC(C)(C)OC(=O)NCCCC1=CC2=CC(=O)C(C)(O)C(=O)C2=CO1 (stereo unspecified),-10,nt,i,nt,nt,
Cc1ccc(Nc2[nH]c(=O)c3ccccc3c2C(=O)c2ccccc2)cc1,-5,nt,i,nt,nt,
COC(=O)C1=C[C@@H](C(=O)OC)[C@@H]2C3=C(C(=O)[C@@]2(C)NC(=O)c2ccccc2)[C@H](c2ccccc2)n2c(=O)n(-c4ccccc4)c(=O)n2[C@@H]3C1,-5,nt,i,nt,nt,
O=C1c2cccc3c2[C@H](CCC3)CN1[C@@H]1CN2CCC1CC2,-7,nt,i,nt,nt,
NC1CCN(c2cccc(Cl)n2)CC1,-6,nt,i,nt,nt,
COC/C=C/C1=CC2=CC(=O)C(C)(OC(=O)c3cnc4ccccc4n3)C(=O)C2=CN1c1cccc(C#N)c1 (stereo unspecified),5,nt,i,nt,nt,
CCCCC[C@H](O)/C=C/[C@H]1[C@H](O)CC(=O)[C@@H]1CCCCCCC(=O)O,0,nt,i,nt,nt,
CC1(C)CC[C@]2(CO)[C@@H](O)C[C@]3(C)C(=CCC4[C@@]5(C)CC[C@H](O)C(C)(C)C5CC[C@]43C)[C@@H]2C1 (stereo partly specified),102*,nt,i,nt,nt,
CC1(OC(=O)CCc2ccccc2)C(=O)C=C2C=C(C3CC3)OC=C2C1=O (stereo unspecified),-5,nt,i,nt,nt,
CCC/C=C(\CCC)C(NC(=O)CCc1ccccc1)c1ccc(C(F)(F)F)cc1 (stereo unspecified),16,nt,i,nt,nt,
CCOC(=O)C1Nc2c(F)cc(C)cc2C2C=CCC12 (stereo unspecified),-1,nt,i,nt,nt,
CC1(C)C[C@H](O)[C@@]23C[C@@H](OC2=O)[C@]2(C)C(=CCC4[C@@]5(C)CC[C@H](O)C(C)(C)C5CC[C@]42C)[C@@H]3C1 (stereo partly specified),-6,nt,i,nt,nt,
Cc1ccsc1C(=O)NNC(=O)CCN1CCN(c2ccccc2)CC1,-7,nt,i,nt,nt,
CC1(OC(=O)C2CCCC2)C(=O)C=C2C=C(C3CC3)OC=C2C1=O (stereo unspecified),8,nt,i,nt,nt,
CC(O)(CC(=O)O)CC(=O)O,-14,nt,i,nt,nt,
CC(C)(C)OC(=O)NCCCC1=CC2=CC(=O)C(C)(OC(=O)C3CCCC3)C(=O)C2=CO1 (stereo unspecified),10,nt,i,nt,nt,
Cc1ccc(Oc2ccc(OCC(=O)OC3CCS(=O)(=O)C3)cc2)cc1 (stereo unspecified),18,nt,i,nt,nt,
COC(=O)c1cc2c(=O)n3ccccc3nc2n(Cc2cccnc2)c1=N,-6,nt,i,nt,nt,
CC(C)(C)OC(=O)NCCCCC1=CC2=CC(=O)C(C)(OC(=O)c3ccco3)C(=O)C2=CO1 (stereo unspecified),5,nt,i,nt,nt,
CCCC[C@@H]1C[C@H]1[C@@H](NC(=O)c1cccs1)c1ccc(C(F)(F)F)cc1,8,nt,i,nt,nt,
CCOC(=O)O[C@]1(C(=O)OCCl)CC[C@H]2[C@@H]3CCC4=CC(=O)C=C[C@]4(C)[C@H]3[C@@H](O)C[C@@]21C,-1,nt,i,nt,nt,
COc1cccc2cc(C(=O)NC3CC(C)(C)NC(C)(C)C3)c(=O)oc12,-4,nt,i,nt,nt,
CC1(OC(=O)C2CCCC2)C(=O)C=C2C=C3CCCN3C=C2C1=O (stereo unspecified),-3,nt,i,nt,nt,
CC1(O)C(=O)C=C2C=C(C3CC3)OC=C2C1=O (stereo unspecified),11,nt,i,nt,nt,
N=c1c(-c2nc3ccccc3[nH]2)cc(C(=O)c2cccs2)nn1-c1ccc(Cl)cc1,31,nt,i,nt,nt,
Cc1ccc(C(=O)n2nnc3ccccc32)cc1,-1,nt,i,nt,nt,
CN(CCCN1c2ccccc2CCc2ccccc21)CC(=O)c1ccc(Cl)cc1,-4,nt,i,nt,nt,
CC(C)(C)OC(=O)NCCCC1=CC2=CC(=O)C(C)(OC(=O)c3ccco3)C(=O)C2=CO1 (stereo unspecified),-3,nt,i,nt,nt,
CC(C)c1cc(C(C)C)c(S(=O)(=O)N2c3ccccc3[C@@]3(Br)C[C@H]4C(=O)N[C@@H](Cc5ccccc5)C(=O)N4[C@@H]23)c(C(C)C)c1,-20,nt,i,nt,nt,
CN(C)CCc1c[nH]c2ccc(Cn3cncn3)cc12,-11,nt,i,nt,nt,
CO[C@H]1O[C@@H]2O[C@@]3(C)CC[C@H]4[C@H](C)CC[C@@H]([C@H]1C)[C@@]24OO3,-3,nt,i,nt,nt,
CC(=O)O[C@@H]1[C@@H](O)[C@@H](O)[C@H](Oc2c(-c3ccc(O)cc3)oc3c(CC=C(C)C)c(O)cc(O)c3c2=O)O[C@H]1C,1,nt,i,nt,nt,
Cc1cc(-c2cc(C(=O)Nc3ccccc3)on2)nc(NC2CCCC2)n1,-2,nt,i,nt,nt,
CC(Oc1ccccc1)C(=O)N1CCC2(CC1)Oc1ccc(Cl)cc1C(=O)C21CC(c2ccccc2)=NO1 (stereo unspecified),-5,nt,i,nt,nt,

# Random excerpt: two compounds from above, in no set order.
SMILES,CSC inhib,eIF4H FP inh,Rce1 inh,PABP FP inh,Yeast UUG start,others
N=c1c(-c2nc3ccccc3[nH]2)cc(C(=O)c2cccs2)nn1-c1ccc(Cl)cc1,31,nt,i,nt,nt,
CC(C)c1cc(C(C)C)c(S(=O)(=O)N2c3ccccc3[C@@]3(Br)C[C@H]4C(=O)N[C@@H](Cc5ccccc5)C(=O)N4[C@@H]23)c(C(C)C)c1,-20,nt,i,nt,nt,

# The results go on.
SMILES,CSC inhib,eIF4H FP inh,Rce1 inh,PABP FP inh,Yeast UUG start,others
CCN(CC)CCNc1ncnc2c1[nH]c1ccc(OC)cc12,18,nt,i,nt,nt,
Cn1cnnc1Sc1nc2c(c(=O)n(C)c(=O)n2C)n1C,-3,nt,i,nt,nt,
COc1ccc2[nH]c(=O)c(-c3nnn(-c4ccc(Cl)c(Cl)c4)n3)cc2c1,-4,nt,i,nt,nt,
CC1(C)CC[C@]2(C(=O)O)CC[C@]3(C)C(=CCC4[C@@]5(C)CC[C@H](O)C(C)(C)C5[C@H](O)C[C@]43C)[C@@H]2C1 (stereo partly specified),-4,nt,i,nt,nt,
Nc1nc(N)c2[nH]cnc2n1,-13,nt,i,nt,nt,
O=C(C1CCC1)N1CCc2cc(S(=O)(=O)N3CCc4ccccc4C3)ccc21,21,nt,i,nt,nt,
COC/C=C/C1=CC2=CC(=O)C(C)(OC(=O)c3cnc4ccccc4n3)C(=O)C2=CN1CCc1c[nH]c2ccccc12 (stereo unspecified),2,nt,i,nt,nt,
CC1=C(/C=C/C(C)=C/C=C/C(C)=C/C=C/C=C(C)/C=C/C=C(C)/C=C/C2=C(C)CCCC2(C)C)C(C)(C)CCC1,-9,nt,i,nt,nt,
COc1ccc(CNC(=O)C[C@@H]2C[C@H]3c4cc(NS(=O)(=O)c5ccc(F)cc5)ccc4O[C@H]3[C@H](CO)O2)cc1,nt,nt,nt,nt,17,
CN1[C@@H]2Cn3c(ccc(-c4ccccc4)c3=O)[C@H]1[C@@H](C(=O)NCCc1ccccc1)[C@@H]2CO,nt,nt,nt,nt,-5,
CN(C[C@H]1N[C@@H](CO)[C@@H]1c1ccccc1)C(=O)c1ccccn1,nt,nt,nt,nt,-1,
O=S(=O)(Cc1ccccc1)N1CCCCN2[C@H](CO)[C@@H](c3ccc(-c4ccccc4)cc3)[C@H]2C1,nt,nt,nt,nt,1,
CN1C[C@H]2[C@@H](c3ccccc31)[C@H](CO)N2C(=O)CN1CCOCC1,nt,nt,nt,nt,-4,
COC(=O)C[C@H]1CC[C@@H]2[C@H](COc3ccc(NC(=O)c4cc(C)on4)cc3C(=O)N2C)O1,nt,nt,nt,nt,11,
